Screening results from PubChem BioAssay.
A1 inh – inhibitors of the anti-apoptotic protein A1, read as caspase activation. actives 0.066% (n = 330,000). MEF A1-2A-BIM cells, Caspase-Glo 3/7 luminescence, 3 h; percent of clofoctol response, vehicle zero. caspase activation, % (no concentration beside the values). AID 2462;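 active means over half of replicate activation scores above 10%, or exactly half above 10 with the replicate mean above 10; inconclusive means replicate mean below 10 yet half the replicates above 10; inactive means over half of replicates below 10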;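 further: wells of about 30 µL received 50 nL stock; many hits fall short of the cut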
ALR inh – human ALR oxidase inhibition via reduced H2O2; P55789; purified ALR, DTT oxidation, H2O2 HRP-luminol luminescence; inhibition, % (no concentration beside the values); actives 3.8% (n = 290,000); AID 485317;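 active means mean and each replicate at 75% or more; inconclusive means only one of the two met; inactive means neither met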;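 further: stock transfer was 7.5 nL into about 7.5 µL; 0% = neutral wells and 100% = wells with inactivated enzyme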
Ecoli rRNA inh – inhibitors of bacterial rRNA selective over humanized ribosomes. E. coli WT GFP vs humanized-ribosome RFP mutants, fluorescence, 24 h; stronger effect = lower value; DMSO median 0, no signal -100. GFP signal change (wild-type ribosome), % (concentration not given with the values). actives 1.6% (n = 350,000);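 active means significant combined selectivity score with lowered wild-type GFP, culture density cut under 30%, mutant RFP and density less affected; inactive means any of these conditions unmet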; further: one replicate is shown; some compounds called inactive have numbers as strong as hits
LANA-H2B inh – blocks KSHV LANA binding to histone H2A/H2B; Q9QR71; inhibition, % (no concentration beside the values); cell-free LANA-H2A/H2B peptide, fluorescence polarization; actives 0.6% (n = 320,000); in the data active means inhibition mostly above about 10%, no sharp cut-off; inactive means mostly below about 6.7%;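 further: stock transfer was 7.5 nL into about 10 µL; 0% = median of vehicle wells and 100% = median of positive control wells; one replicate is shown; the record names a cut of 25% in any replicate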
Target sequence (Q9QR71 whole entry, looked up): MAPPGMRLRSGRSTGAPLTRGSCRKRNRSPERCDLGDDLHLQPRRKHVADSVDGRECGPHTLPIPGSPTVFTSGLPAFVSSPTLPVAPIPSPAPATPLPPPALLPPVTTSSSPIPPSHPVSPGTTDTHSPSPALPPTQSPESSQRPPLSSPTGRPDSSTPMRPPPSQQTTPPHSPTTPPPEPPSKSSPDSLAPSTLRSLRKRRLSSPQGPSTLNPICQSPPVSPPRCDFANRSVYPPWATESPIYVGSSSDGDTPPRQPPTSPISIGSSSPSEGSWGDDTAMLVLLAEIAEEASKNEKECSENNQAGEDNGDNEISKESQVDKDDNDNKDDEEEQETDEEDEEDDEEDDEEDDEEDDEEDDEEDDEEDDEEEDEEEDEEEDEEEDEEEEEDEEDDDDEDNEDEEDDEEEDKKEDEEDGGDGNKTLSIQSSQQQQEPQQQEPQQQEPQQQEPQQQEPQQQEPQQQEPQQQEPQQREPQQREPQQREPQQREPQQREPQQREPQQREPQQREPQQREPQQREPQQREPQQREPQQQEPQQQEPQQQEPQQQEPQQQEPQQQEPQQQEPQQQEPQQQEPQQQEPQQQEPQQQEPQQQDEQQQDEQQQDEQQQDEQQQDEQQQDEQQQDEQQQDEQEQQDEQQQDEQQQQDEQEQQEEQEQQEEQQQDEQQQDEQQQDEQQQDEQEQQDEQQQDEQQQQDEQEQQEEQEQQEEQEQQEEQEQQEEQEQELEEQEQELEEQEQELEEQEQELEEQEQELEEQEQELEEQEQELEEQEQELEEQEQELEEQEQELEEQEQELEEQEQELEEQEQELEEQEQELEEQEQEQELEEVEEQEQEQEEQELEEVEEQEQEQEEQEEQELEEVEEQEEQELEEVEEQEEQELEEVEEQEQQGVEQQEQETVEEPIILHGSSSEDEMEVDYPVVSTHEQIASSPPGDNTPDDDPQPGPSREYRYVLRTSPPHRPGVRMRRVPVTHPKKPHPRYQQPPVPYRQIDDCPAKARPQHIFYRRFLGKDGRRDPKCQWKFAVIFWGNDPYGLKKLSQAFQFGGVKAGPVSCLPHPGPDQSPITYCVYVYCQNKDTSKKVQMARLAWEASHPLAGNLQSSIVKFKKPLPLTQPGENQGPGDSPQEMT
Beta cell apopt – beta cell apoptosis inhibition | INS-1E cytokine-induced death, ATP luminescence, 48 h; percent of positive-control rescue, neutral wells zero | protection from apoptosis, % (no concentration beside the values) | actives 0.8% (n = 300,000);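 active means all replicates at 75% or more, or half of them and the mean; inconclusive means half reach 75% but not the mean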;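 further: 0% = cytokine-treated negative control wells and 100% = positive control rescue; higher means more ATP so stronger rescue from cytokine killing; wells of about 40 µL received 100 nL stock; the first replicate is given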
Beta2AR agonist – human beta-2 adrenergic receptor agonism by FAP. Am2.2-beta2AR cells, FAP receptor internalization, flow cytometry; reference of the scale not given here. actives 0.43% (n = 340,000). AID 504454. P07550. response, % (no concentration beside the values);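 active means response above a set limit, near 3 SD of response in nonfluorescent compounds, cut at about 42% in these data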;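 further: stock transfer was 100 nL into about 11 µL; a reference agonist was the positive control; negative values mostly stem from fluorescent compounds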
Calb FLC – C. albicans growth modulation with fluconazole; growth inhibition, % (no concentration beside the values); C. albicans CaCi-2 (fluconazole-resistant clinical isolate) + fluconazole, Alamar Blue growth, 48 h; actives 0.57% (n = 300,000); AID 1979;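 active means most replicates above 75%; inconclusive means exactly half above 75%; inactive means most below 75%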;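 further: all wells also contain fluconazole at 8 µg/ml as a sub-toxic cotreatment; 0% = median of DMSO wells and 100% = median of geldanamycin control wells; wells of about 8 µL received 7.5 nL stock; the first replicate is given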
T cruzi inh – blocks replication of Trypanosoma cruzi | actives 1.4% (n = 300,000) | AID 1885 | T. cruzi beta-gal in NIH3T3, luminescence, 90 h | inhibition, % (concentration not given with the values);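 active means mean inhibition across valid replicates above about 55%, limit read from the data; inconclusive means mean below that limit but half or more replicates reach it; inactive means mean below it, under half of replicates reach it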;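 further: signal also drops with host cell toxicity which is not excluded here; 0% = plate median of DMSO wells and 100% = zero luminescence signal; higher percent means less beta-gal luminescence so fewer parasites; stock transfer was 50 nL into about 50 µL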
Ecoli rRNA inh OD600 – further read-out of Ecoli rRNA inh, marked with its call; OD600 change, %; measured here: OD600 growth;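 optical density of the mix in the first replicate; 0 = DMSO median and -100 = no signal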
Ecoli rRNA inh RFP – recorded beside Ecoli rRNA inh, whose call it bears; RFP signal change, %; measured here: RFP humanized mutant strains;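 first replicate; 0 = DMSO median and -100 = no signal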
* marks the source's active call; other numbers are inactive results; u = inconclusive; x = not tested or not shown. An excerpt, so the mix of outcomes need not match the whole.

SMILES	A1 inh	ALR inh	Ecoli rRNA inh	Ecoli rRNA inh OD600	Ecoli rRNA inh RFP	LANA-H2B inh	Beta cell apopt	Beta2AR agonist	Calb FLC	T cruzi inh
Nc1cc(N)cc(C(=O)Nc2ccc3c(c2)C(=O)NC3=O)c1	0.5	-90	8	15	-2.9	2.9	-3	0	x	-2
O=C(NCc1cccc(Cl)c1)c1ccc2ccccc2n1	0.0	x	-10	-37	-4.0	0.5	-4	-13	-5	-2
O=C(CCN1C(=O)COc2ccccc21)NCCN1CCN(c2cccc(Cl)c2)CC1	-0.6	18	x	x	x	5.1	-1	-9	8	3
N#CCCN(Cc1cccnc1)C(=O)c1ccc(S(=O)(=O)N2CCOCC2)cc1	0.3	x	x	x	x	-2.3	-4	8	2	-14
Cc1nn(-c2ccccc2)c(Cl)c1/C=N\NC(=O)c1cncc(Br)c1	0.4	-1	x	x	x	-5.6	-2	2	2	3
Cc1cc(NC(=O)NC(C(F)(F)F)C(F)(F)F)no1	-0.6	-24	4	2	2.5	2.5	1	-1	5	-3
CNc1ncc(C(=O)c2ccc(Br)cc2)s1	x	x	15	6	4.5	x	x	1	-4	-13
COc1cccc(C(=O)Nc2nnc(CCS(=O)(=O)c3ccc(C)cc3)s2)c1	-0.6	-14	21	29	3.0	-7.0	x	9	1	8
CCOc1ccc(NC(=O)Nc2ccc(NC(C)=O)cc2)cc1	0.8	-2	-2	1	-4.6	5.1	-2	2	-6	6
Cc1ccccc1NC(=O)COC(=O)C1(C)CC1(Cl)Cl (stereo not drawn)	0.0	-14	1	-6	3.0	2.1	-2	-2	-5	-14
Cc1ccc(NC(=O)CSc2n[nH]c(-c3ccco3)n2)c(C)c1	-2.2	51	-2	-2	-0.4	9.9	-6	-8	12	-8
O=c1[nH]c(Cc2cccs2)nc2scc(-c3ccc(Cl)cc3)c12	0.6	-13	-1	-5	-8.8	1.0	10	1	-7	5
O=C(N/N=C/c1ccncc1)c1ccc(NC(=O)c2ccc(Cl)cc2)cc1	-1.2	-3	2	2	-1.9	-0.9	-3	-6	-1	6
Cc1cn(Cc2ccccc2)c(=O)[nH]c1=O	-0.2	0	x	x	x	-2.4	11	1	0	-17
Cc1cc(-c2csc(NC(=O)c3ccc(=O)n(C)n3)n2)c(C)n1CC1CCCO1 (stereo not drawn)	-0.9	x	x	x	x	1.7	2	1	8	3
COC(=O)Cc1ccc(NC(=S)NCc2ccc(F)cc2)cc1	1.5	x	-6	-8	-4.7	x	-1	11	-25	12
Cc1ccc(NC(=S)Nc2cc(C(=O)O)ccc2N2CC3CC(C2)c2cccc(=O)n2C3)cc1C (stereo not drawn)	0.4	14	6	-1	-2.3	0.3	9	1	-44	-17
O=C(c1cccc(NS(=O)(=O)c2cccc(F)c2)c1)N1CCCC1	x	x	6	4	-1.6	x	x	2	-3	-2
O=C(Nc1ccc(S(=O)(=O)N2CCOCC2)cc1)c1ccc(Cl)cc1	-1.0	-9	-8	-13	8.7	6.0	9	5	-6	2
Cc1ccc2c(CC(=O)OC3CCOC3=O)coc2c1 (stereo not drawn)	-0.4	-2	x	x	x	2.6	-8	-3	-19	-3
C=CCn1c(SCC(=O)N2N=C(c3ccco3)CC2c2ccco2)nnc1-c1ccncc1 (stereo not drawn)	-0.6	x	x	x	x	x	-2	-9	27	-11
Cc1ccccc1NC(=S)NC(NC(=O)c1ccccc1C)C(Cl)(Cl)Cl (stereo not drawn)	0.5	-12	x	x	x	1.8	2	-1	-13	-3
CC(C)C12CCC(C(=O)O)C(C1)C(=O)O2 (stereo not drawn)	0.4	-4	x	x	x	3.9	-2	0	12	-2
COc1cccc(-c2c(NC(=O)c3ccco3)oc3ccccc3c2=O)c1	0.1	1	x	x	x	-5.9	-24	-7	-1	1
CC1CCCC(NC(=O)c2ccc(CNc3c(N4CCCC4)c(=O)c3=O)cc2)C1C (stereo not drawn)	0.3	10	3	-2	-0.8	-2.7	8	3	-1	-6
Cc1cc(NC(=O)CCC(=O)N(CC(=O)NCC2CCCO2)c2cccc(F)c2)no1 (stereo not drawn)	0.2	1	4	0	-4.0	0.9	-2	1	1	-8
CC(=O)N1c2ccc(S(=O)(=O)N3CCC(C(=O)NC(C)c4ccccc4)CC3)cc2CC1C (stereo not drawn)	0.3	x	2	0	2.0	1.7	-2	-2	1	-6
CCN1CCC(NC(=O)Nc2ccc(F)cc2F)CC1	-0.5	x	9	15	0.7	-6.0	-8	-8	-18	19
O=C(NCc1ccco1)c1csc2c1CCCCC2	0.7	-13	-2	-4	1.1	-2.6	1	0	u	-9
CCCN1CCc2c(sc(NC(=O)CCS(=O)(=O)c3ccccc3)c2C(=O)OC)C1	-0.2	-7	5	0	0.4	-17	-25	13	17	30
COC(=O)c1ccsc1NC(=O)CN1CCN(c2ncccn2)CC1	1.2	-6	5	4	-1.0	-6.0	-4	9	4	1
O=C(O/N=C1\CCCCC1c1ccc([N+](=O)[O-])cc1[N+](=O)[O-])c1c(F)cccc1F (stereo not drawn)	-0.3	-39	x	x	x	0.3	-20	-2	u	2
COc1ccccc1Nc1nc(NCc2ccco2)c2ccccc2n1	0.0	29	x	x	x	-1.0	55	8	10	50
CC1=NN(c2ccc(C(=O)O)cc2)C(=O)/C1=C/c1ccc(-c2ccccc2F)o1	0.4	u	x	x	x	-1.7	-15	30	5	0
Cc1ccc(C(=O)/C=C/c2ccc(Br)cc2)o1	-1.0	x	x	x	x	-3.8	x	6	-18	-19
CC(=O)c1ccc(NC(=O)CSc2nccn2C)cc1	1.6	u	4	-11	-3.0	5.6	-1	-2	22	-2
CC1CC(C)CN(CCCNC(=O)C2CCN(S(=O)(=O)N3CCCCC3)CC2)C1 (stereo not drawn)	0.4	-1	16	13	2.3	1.6	-3	-4	0	14
CCOc1ccc(S(=O)(=O)N2CCN(C(=O)c3cc(-c4ccccc4)nn3-c3ccccc3)CC2)cc1	0.4	-5	0	18	-2.0	1.3	-3	4	-1	1
O=C(CN1CCN(S(=O)(=O)c2ccc(Cl)cc2)CC1)c1ccc(O)c(O)c1	-0.1	99*	x	x	x	0.7	4	16	-1	8
Cc1ccc(CSCCNC(=O)c2ccccc2)cc1	1.0	x	-30	-43	-10	-6.0	-1	-2	-9	-8

Part of the list above, set out differently:
COc1cccc(-c2c(NC(=O)c3ccco3)oc3ccccc3c2=O)c1
  A1 inh: 0.1
  ALR inh: 1
  Ecoli rRNA inh: x
  Ecoli rRNA inh OD600: x
  Ecoli rRNA inh RFP: x
  LANA-H2B inh: -5.9
  Beta cell apopt: -24
  Beta2AR agonist: -7
  Calb FLC: -1
  T cruzi inh: 1
CC1CCCC(NC(=O)c2ccc(CNc3c(N4CCCC4)c(=O)c3=O)cc2)C1C (stereo not drawn)
  A1 inh: 0.3
  ALR inh: 10
  Ecoli rRNA inh: 3
  Ecoli rRNA inh OD600: -2
  Ecoli rRNA inh RFP: -0.8
  LANA-H2B inh: -2.7
  Beta cell apopt: 8
  Beta2AR agonist: 3
  Calb FLC: -1
  T cruzi inh: -6
Cc1cc(NC(=O)CCC(=O)N(CC(=O)NCC2CCCO2)c2cccc(F)c2)no1 (stereo not drawn)
  A1 inh: 0.2
  ALR inh: 1
  Ecoli rRNA inh: 4
  Ecoli rRNA inh OD600: 0
  Ecoli rRNA inh RFP: -4.0
  LANA-H2B inh: 0.9
  Beta cell apopt: -2
  Beta2AR agonist: 1
  Calb FLC: 1
  T cruzi inh: -8

(more compounds)
SMILES	A1 inh	ALR inh	Ecoli rRNA inh	Ecoli rRNA inh OD600	Ecoli rRNA inh RFP	LANA-H2B inh	Beta cell apopt	Beta2AR agonist	Calb FLC	T cruzi inh
O=C(COC(=O)CCc1ccc(S(=O)(=O)N2CCOCC2)cc1)NCc1ccccc1	u	-14	11	2	0.6	3.4	2	-4	5	-16
COc1ccc(OCC(=O)Nc2ccc(N3CCN(C(=O)c4ccccc4C)CC3)cc2)cc1	-0.4	-21	12	14	-6.4	9.3	7	14	1	-6
CCOC(=O)c1ccc(NC(=S)NC2CC(C)(C)NC(C)(C)C2)cc1	0.1	-3	x	x	x	3.3	-7	1	-7	-12
COc1ccc(Cl)cc1C(=O)O/N=C(\N)c1ccc(Cl)cc1	-0.2	1	x	x	x	1.9	9	-3	18	-14
CCCCN(CC)CCCNC(=O)Cn1nc(Cc2cccnc2)c2ccccc2c1=O	0.4	-22	x	x	x	0.6	-2	8	-6	-11
O=C(CN1CCN(CCOCCO)CC1)N1c2ccccc2Sc2ccc(Cl)cc21	-0.4	23	x	x	x	-2.5	-4	-29	-2	-6
CCc1c(C)nc(SCC(=O)N2CCN(c3ccccc3OC)CC2)[nH]c1=O	1.4	11	-11	-9	-1.5	1.6	x	-1	-1	15
CCc1cccc(C)c1N(C(=O)Cn1c(=O)[nH]c2ccccc21)C(C)COC (stereo not drawn)	0.2	6	x	x	x	-9.2	0	2	-8	-1
O=C(Cc1ccccc1)NCC(=O)Nc1cc(Cl)ccc1Cl	x	x	-2	1	-0.8	x	x	-6	-6	-12
O=C(CN1CCN(c2ccc(Cl)cc2)CC1)Nc1ccc(F)cc1	-0.9	11	x	x	x	-0.4	-4	26	3	-13
Cc1[nH]c(C)c(S(=O)(=O)Nc2cccc(Cl)c2C)c1C(=O)N1CCCC1	-0.5	9	4	4	1.9	-0.9	-4	1	27	-6
CC1CC(C)CN(CC(C)(C)NS(=O)(=O)c2ccccc2)C1 (stereo not drawn)	0.5	1	x	x	x	-0.1	2	0	-35	-1
CC(C)(C)NC(=O)C(c1ccc(F)cc1)N(CC1CCCO1)C(=O)CCC(=O)Nc1ccccn1 (stereo not drawn)	-0.5	-2	-1	3	-0.6	3.1	-2	-4	4	5

Reformatted: 2 of the compounds above
Below each SMILES: A1 inh | ALR inh | Ecoli rRNA inh | Ecoli rRNA inh OD600 | Ecoli rRNA inh RFP | LANA-H2B inh | Beta cell apopt | Beta2AR agonist | Calb FLC | T cruzi inh
CCc1cccc(C)c1N(C(=O)Cn1c(=O)[nH]c2ccccc21)C(C)COC (stereo not drawn)
→ 0.2 | 6 | x | x | x | -9.2 | 0 | 2 | -8 | -1
Cc1nn(-c2ccccc2)c(Cl)c1/C=N\NC(=O)c1cncc(Br)c1
→ 0.4 | -1 | x | x | x | -5.6 | -2 | 2 | 2 | 3
